# ugtP null kill – growth inhibition of S. aureus ugtP deletion strain | 330,000 compounds, 0.54% hits | AID 1259309 | growth inhibition, % (concentration not given with the values) | S. aureus RN4220 ugtP deletion, OD600 growth, 16 h; some inactives read as strong as hits;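 active = z-score under -3 and OD600 up to 0.15 on both plates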;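 note: plate controls were untreated wells for no effect and antibiotic for full effect; wells of about 80 µL received 100 nL stock; the first replicate is given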
# PrP 5UTR inh – inhibition of PrP 5' UTR reporter expression; inhibition, % (no concentration beside the values); 340,000 compounds, 0.35% hits; cell-based PrP 5' UTR mRNA reporter, plate reader;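 active = every replicate at 50% or more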;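 note: 0 = median of the neutral control wells; tested in H4 reporter cells; numbers are from one replicate; inactives centre near -14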
# BJeLR lethal – BJeLR cell viability loss. BJeLR (HRASV12) viability, CellTiter-Glo ATP luminescence, 48 h; reference of the scale not given here. inhibition, % (test concentration not listed). 300,000 compounds, 0.17% hits;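 active = replicate mean above 50%; inconclusive = above 50% but judged a plate artefact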;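 note: 50 nL library stock added to about 25 µL; numbers are from one replicate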
# Autofluor counter – flagged as autofluorescent in microsphere protease counterscreen. compound autofluorescence counterscreen, microsphere flow cytometry; stronger effect = higher value. fluorescence intensity (test concentration not listed). 360,000 compounds, 3.1% hits. AID 624483;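 active = at least 3 SD above the mean of all compounds, about 16000 in these data; inconclusive = too few beads counted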;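 note: 100 nL of 1 mM stock went into each well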
# Sa RN4220 lethal – S. aureus RN4220 growth inhibition; OD600, 16 h; AID 1259311; 330,000 compounds, 0.33% hits; inhibition, % (concentration not given with the values);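 active = z-score of -3 or lower and OD600 up to 0.18 on both plates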;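 note: plate controls were untreated cells for no effect and reference antibiotic for full effect; stock transfer was 100 nL into about 80 µL; one replicate is shown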
# Mtb hypoxia inh – Mtb hypoxia fluorescent reporter inhibition; fluorescence inhibition, % (no concentration beside the values); M. tuberculosis hypoxia-regulated fluorescent reporter, fluorescence; 300,000 compounds, 0.1% hits;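 active = 35 to 45% if threefold the growth effect, above 45% if 1.5-fold the growth effect; inactive = the rest, general growth blockers included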;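 note: wells of about 50 µL received 100 nL stock; 0% = vehicle wells and 100% = reference inhibitor wells; whole bacteria with a GFP reporter of the hypoxia response; strong numbers were not always called active; many hits fall short of the cut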
# Mtb hypoxia inh growth – second read-out of Mtb hypoxia inh, no call of its own (marks repeat the call); growth inhibition, %; measured here: M. tuberculosis growth (absorbance);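 0% = vehicle and 100% = reference antibiotic; read after six days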
# * marks the source's active call; other numbers are inactive results; ? = inconclusive; . = not tested or not shown.
SMILES,ugtP null kill,PrP 5UTR inh,BJeLR lethal,Autofluor counter,Sa RN4220 lethal,Mtb hypoxia inh,Mtb hypoxia inh growth
CC1(C)Cc2ccccc2-c2nnc(SCC(=O)N3CCN(c4ccccc4)CC3)n21,7,-6,0,8038,1.9,0,2
CSc1oc(-c2ccco2)nc1S(=O)(=O)c1ccc(Br)cc1,-7,-3,7,5805,-11,3,6
COc1ccc(C)cc1NC(=O)CCc1ccc(S(=O)(=O)N2CCOCC2)cc1,4,-5,.,?,3.6,8,31
COc1ccc(/C=C2\NC(=O)C(C=NCc3ccccc3)=C2O)cc1,.,-16,-8,2487,.,.,.
COc1ccc2nc(N(Cc3ccccc3)C(=O)CCNC(C)=O)sc2c1,14,-10,2,5199,1.6,4,4
CCOC(=O)c1cc(NC(=O)N(C(C)C)C(C)C)c(C)nc1C,-2,-20,-8,16634*,-1.5,2,0
Cn1c(=O)c(=O)n(C)c2cc(S(=O)(=O)CCC(=O)NCc3ccccc3)ccc21,5,-9,-11,5858,8.8,0,4
COc1ccc(NCc2nnc(SCC(=O)Nc3ccccc3)n2C)cc1,4,-16,2,2591,-1.0,9,5
CCOC(=O)c1ccc(NC(=O)CN2CCc3ccccc3C2)cc1,-3,-3,5,4311,-2.1,2,-2
CCc1nnc(NC(=O)C(CC)c2ccccc2)s1 (stereo not given),-1,-14,2,9142,4.5,-4,-6
NS(=O)(=O)c1cccc(NC(=O)c2ccc3nc[nH]c3c2)c1,3,-16,-3,3822,0.8,7,4
O=C(Nc1ccc(F)cc1)c1cc(S(=O)(=O)N2CCCCC2)ccc1F,8,-24,1,5219,0.0,-1,-4
CCc1ccc(OCC(O)CN2CCN(CCO)CC2)cc1 (stereo not given),9,-14,0,4746,4.3,9,-3
COC(=O)c1[nH]c2cc(OC)ccc2c1NC(=O)CN1CCOCC1,4,.,5,.,0.6,-4,8
COc1ccc(C(=O)NN=C(C)c2cccc(NC(=O)c3ccccc3F)c2)cc1,0,.,.,.,1.5,4,6
COC(=O)C(NCc1cccc(CNC(C(=O)OC)C(C)C)c1)C(C)C (stereo not given),6,.,.,.,7.1,4,3
CN1C(=O)CSc2ccc(NC(=O)N3CCN(c4ccccc4)CC3)cc21,18,-19,13,2409,5.2,-2,9
CCn1cc(C(=O)OCC(=O)Nc2ccc(C(C)C)cc2)c(=O)c2ccc(C)nc21,-1,-22,-1,3310,8.1,14,6
Oc1ccc(/C=N/NC2=NCCCCC2)cc1,.,-18,-8,10816,.,.,.
CCOC(=O)C1CCN(S(=O)(=O)c2ccc3c(c2)NC(=O)C(C)C(=O)N3)CC1 (stereo not given),-4,0,-3,5881,-6.8,3,7
C=CCn1c(=O)c2ccccc2n2c(SCC(C)=O)nnc12,9,-28,-11,5553,6.0,-2,3
O=C1COc2ccc(-c3n[nH]c(=O)c4ccccc34)cc2N1,-3,5,2,2053,3.0,-7,4
Cc1cc(NC(=O)C(C)(C)C)no1,10,-28,-2,4957,2.4,.,.
O=C(CO/N=C/c1c(Cl)cccc1Cl)NNC(=O)c1ccc(Cl)cc1,.,-20,-2,4299,.,.,.
O=C(c1ccc(Br)o1)N1CCN(c2ccccc2F)CC1,13,-19,0,16015,7.2,.,.

# 3 compounds out of the list, ordered by count of non-hydrogen atoms, largest number first:
SMILES,ugtP null kill,PrP 5UTR inh,BJeLR lethal,Autofluor counter,Sa RN4220 lethal,Mtb hypoxia inh,Mtb hypoxia inh growth
COc1ccc2nc(N(Cc3ccccc3)C(=O)CCNC(C)=O)sc2c1,14,-10,2,5199,1.6,4,4
COC(=O)C(NCc1cccc(CNC(C(=O)OC)C(C)C)c1)C(C)C (stereo not given),6,.,.,.,7.1,4,3
COC(=O)c1[nH]c2cc(OC)ccc2c1NC(=O)CN1CCOCC1,4,.,5,.,0.6,-4,8

# The main list resumes with the 3 entries that preceded the break.
SMILES,ugtP null kill,PrP 5UTR inh,BJeLR lethal,Autofluor counter,Sa RN4220 lethal,Mtb hypoxia inh,Mtb hypoxia inh growth
Cc1cc(NC(=O)C(C)(C)C)no1,10,-28,-2,4957,2.4,.,.
O=C(CO/N=C/c1c(Cl)cccc1Cl)NNC(=O)c1ccc(Cl)cc1,.,-20,-2,4299,.,.,.
O=C(c1ccc(Br)o1)N1CCN(c2ccccc2F)CC1,13,-19,0,16015,7.2,.,.
Cc1ccc(N(Cc2cc(=O)[nH]c3ccccc23)C(=O)CCl)cc1,.,-14,48,3753,.,.,.
COC(=O)c1sc(S(=O)(=O)NCCC(=O)O)c(C(=O)OC)c1C,2,-16,-5,3511,0.8,-4,13
C/C(=N\NC(=O)c1cccc(S(=O)(=O)N2CCCC2)c1)c1ccco1,.,-16,-4,4561,.,.,.
COc1ccc(CCN)cc1OC,2,-26,0,5718,-1.4,.,.
CC(=O)c1cc(CN2CCC(C(=O)Nc3ccc(-n4nc(C)cc4C)cc3)CC2)cs1,1,-1,-8,7484,-2.2,4,3
CC(C)NC(=S)NC(=O)c1ccc(Cl)cc1Cl,8,-8,2,2209,6.7,5,4
Cc1nc(N)sc1Cc1ccc2c(c1)OCO2,-2,-16,-3,2680,1.5,.,.
COCCC(=O)N1CCC(C(=O)Nc2ccc(Oc3ccccc3)nc2)CC1,7,-25,1,4201,4.1,3,-3
C=CCCC(=O)Nc1nc(C)c(-c2csc(Nc3ccc(Cl)cc3Cl)n2)s1,0,-14,4,3826,-12,0,1
Cc1ccsc1/C=C1\SC(N)=NC1=O,.,4,5,3067,.,.,.
O=[N+]([O-])c1c(Nc2ccccc2)ccc2nonc12,-2,-6,-1,3718,4.6,4,2
O=C(/C=C/c1ccccc1)N/C(=C/c1ccccc1)C(=O)N1CCCCC1,7,-30,2,4019,4.5,4,9
O=C(CN(CCO)c1ccccc1)Nc1cccc(S(=O)(=O)N2CCCC2)c1,0,-8,5,5602,5.2,12,1
CN1CCN(c2ccc([N+](=O)[O-])c(NCc3ccco3)c2)CC1,5,-9,-5,2557,5.1,9,17
OC(COc1ccc2ccccc2c1)CN1CCCC1 (stereo not given),-7,-46,4,6308,-6.5,-3,12
COc1cc2ncnc(NCc3cccc(F)c3F)c2cc1OC,5,5,-1,3463,5.2,15,10
O=C(COC(=O)/C=C/c1ccc(Br)o1)NCCCN1CCCC1=O,.,-13,-10,4316,.,.,.
O=S(=O)(Cc1noc(-c2ccc(Cl)cc2)n1)Cc1ccco1,2,.,-1,.,0.5,9,-5
CCOP(=O)(OCC)C(O)c1ccc(OC)cc1 (stereo not given),3,-22,2,4338,0.7,-6,1
COCCN1C(=O)c2oc3ccccc3c(=O)c2C1c1ccc(OC)c(OC)c1 (stereo not given),8,-1,-5,5994,1.7,.,.
Cc1ccc(CSCC(=O)N(C)CC(=O)Nc2ccccc2C(F)(F)F)cc1,5,-24,1,4746,1.9,11,6
CCc1ccccc1NC(=S)N(Cc1cccc(C)c1)c1cccnc1,6,-10,1,3751,2.0,-3,13
COc1cc2c(=O)n(CC3CCCO3)c(=O)n(CC(=O)Nc3cccc(Cl)c3)c2cc1OC (stereo not given),-5,-22,-3,2648,-4.9,.,.
COc1cc(NC(=O)CN2C(=O)C(C)N(c3ccc(C)cc3)C2=O)cc(OC)c1 (stereo not given),14,-17,7,.,1.5,8,-3
Cn1ncc(C#N)c1NC(=O)C1CC(c2ccc(Cl)c(Cl)c2)=NO1 (stereo not given),-5,-11,0,4656,-0.7,2,-2
SMILES,ugtP null kill,PrP 5UTR inh,BJeLR lethal,Autofluor counter,Sa RN4220 lethal,Mtb hypoxia inh,Mtb hypoxia inh growth
CCCCNC(=O)[C@@H]1CC=C[C@@H]2CCN(Cc3ccc(Cl)c(Cl)c3)C(=O)[C@@H]21,.,-7,3,3810,.,.,.
CCCCNC(=O)CN1C(=O)NC2NC(=O)NC21 (stereo not given),5,-13,4,5415,0.2,0,5
CC(C)(C)c1ccc(C(=O)NCc2ccco2)cc1,2,.,-6,.,5.0,24,26
Cc1cc(C)cc(-c2nnc(SCC(=O)NC3CC3)o2)c1,-4,-10,.,8902,-0.4,4,9
CCCOc1ccc(CCC(=O)NN=Cc2ccncc2)cc1,3,.,.,.,-1.8,12,2
CN=c1scc(-c2ccccc2F)n1/N=C/c1ccc[nH]1,.,92*,12,5295,.,.,.
O=C(Cn1nnc2ccccc2c1=O)NCCc1ccc(Cl)cc1Cl,4,-6,-18,2623,2.0,15,18
C=CCN(C(=O)c1cccc(N2C(=O)C3CC=CC(C)C3C2=O)c1)c1ccccc1 (stereo not given),-3,-20,-5,4628,3.1,15,5
O=C1C(Nc2ccccc2)=C(N2CCCCC2)C(=O)c2ccccc21,5,-17,5,2384,16,-6,9
CN1CCN(C(=O)/C(=C\c2cccs2)NC(=O)c2cccs2)CC1,-1,-63,-6,10058,2.9,7,6
COc1ccc(Cl)cc1NC(=O)CNc1ccccc1CN(C)C1CCCCC1,3,-8,9,4678,-6.6,0,-1
Cc1cc(/C=C(\C#N)C(=O)N2CCCCC2)cc(C)c1O,-2,-25,-5,3738,4.1,-13,-6
COc1cc(C(=O)Nc2cccnc2)cc(OC)c1OC,6,-9,0,.,2.4,9,-6
COc1cc(/C=C2/C(=N)N3N=C(C(C)C)SC3=NC2=O)ccc1OS(=O)(=O)c1ccccc1,7,-12,-6,3015,1.8,3,-9
O=C(CSCc1c(F)cccc1Cl)Nc1cccnc1,23,-43,3,3089,6.6,3,15
Cc1cc(C(=O)NCCCOC(C)C)c2ccccc2n1,2,-38,5,22118*,-1.5,7,10
O=C1NC(Cc2ccccc2)C(=O)N2C1C[C@@]1(Br)c3ccccc3N(S(=O)(=O)c3ccc(F)cc3)C21 (stereo not given in full),-7,.,.,.,14,1,8
Cc1c(C)c2ccc(OCC(=O)N3CCC[C@@H]3C(=O)O)c(C)c2oc1=O,-5,-17,-2,3939,5.8,.,.
CCOc1ccc(C(=O)OC2CCN(C)CC2)cc1,6,-19,-2,2406,2.1,.,.
O=C(OC(C(=O)NCc1cccs1)c1ccccc1F)c1ccco1 (stereo not given),3,-19,-4,8951,4.9,5,6
O=C(c1ccc2nc[nH]c2c1)N1CCc2ccccc2C1,4,-15,-1,5238,-0.6,3,2
CCCCN=Cc1c(C)[nH]n(-c2ccccc2)c1=S,7,-33,22,4167,1.8,2,-5
COc1ccc(CCNC(=O)[C@H](C)NC(=O)[C@@H]2CSC3c4ccccc4C(=O)N32)cc1 (stereo not given in full),17,-14,-3,4220,4.2,7,0
COc1ccc(C(=O)C2CCCN(Cc3ccc4nonc4c3)C2)c(OC)c1 (stereo not given),3,-4,-4,3424,4.0,-9,8
Cn1c(SCC(=O)NN=Cc2ccccn2)nnc1-c1ccccc1,-5,.,.,.,-5.5,-4,-7
CCN1C(=O)c2ccccc2S(=O)c2ccc(C(=O)N3CCN(C(=O)c4ccco4)CC3)cc21 (stereo not given),6,-8,1,4419,2.5,-5,0
Cc1ccc(N2CC(C)Cn3c2nc2c3c(=O)n(CC(=O)OCc3ccccc3)c(=O)n2C)cc1C (stereo not given),-9,-28,5,11793,-5.9,-7,3
COc1cccc(CN(C)C(=O)C2CC(=O)N(c3ccc4c(c3)OCCO4)C2)c1 (stereo not given),3,-5,-1,.,2.0,7,13

# Another view of some results above.
Compound: COc1cc(/C=C2/C(=N)N3N=C(C(C)C)SC3=NC2=O)ccc1OS(=O)(=O)c1ccccc1
  ugtP null kill = 7	PrP 5UTR inh = -12	BJeLR lethal = -6	Autofluor counter = 3015	Sa RN4220 lethal = 1.8	Mtb hypoxia inh = 3	Mtb hypoxia inh growth = -9

Compound: O=C(CSCc1c(F)cccc1Cl)Nc1cccnc1
  ugtP null kill = 23	PrP 5UTR inh = -43	BJeLR lethal = 3	Autofluor counter = 3089	Sa RN4220 lethal = 6.6	Mtb hypoxia inh = 3	Mtb hypoxia inh growth = 15

Compound: Cc1cc(C(=O)NCCCOC(C)C)c2ccccc2n1
  ugtP null kill = 2	PrP 5UTR inh = -38	BJeLR lethal = 5	Autofluor counter = 22118*	Sa RN4220 lethal = -1.5	Mtb hypoxia inh = 7	Mtb hypoxia inh growth = 10

Compound: O=C1NC(Cc2ccccc2)C(=O)N2C1C[C@@]1(Br)c3ccccc3N(S(=O)(=O)c3ccc(F)cc3)C21 (stereo not given in full)
  ugtP null kill = -7	PrP 5UTR inh = .	BJeLR lethal = .	Autofluor counter = .	Sa RN4220 lethal = 14	Mtb hypoxia inh = 1	Mtb hypoxia inh growth = 8
